Calb biofilm kill: mixture kills Candida albicans biofilm cells | 0.02% of 120,000 active | inhibition, % at 7.6 µM | AID 1242 | C. albicans biofilm persisters + clotrimazole, fluorescence viability; primary screen in compound mixtures of four per well;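 active = inhibition above 30.3% in the primary screen of four-compound pools, then above 30% when the compound was retested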;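 also: compounds exposed to preformed 24 h biofilms for 48 h; the number belongs to the whole pool; some results filed as inactive read as strong as hits; inactives centre near 12; 0% = biofilm with clotrimazole alone and 100% = kill control; retested singly at about 60 µM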
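Test system: C. albicans biofilms. Buffer or medium: RPMI/MOPS medium, pH 7.0. Timing: 48 h compound exposure at 37 °C. Technique: Alamar Blue fluorescence. Evaluation: percent inhibition of biofilm viability.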
* hit, by the source's call. These rows are one share of the data, so the mix of outcomes need not match the whole.

mol | Calb biofilm kill
CCOC(=O)C1CCN(C(=O)CSc2nccc(C)n2)CC1 | 12
O/N=C1/C2C3C(Br)C4C5CC(C1C53)C24 (stereo not given) | 18
CC(=O)NS(=O)(=O)c1ccc(NC(=O)c2cc(-c3ccc(C)cc3)nc3ccccc23)cc1 | 18
CCOC(=O)C1=C(C)N=c2s/c(=C\c3ccc(OC(C)=O)cc3)c(=O)n2C1/C=C/c1ccccc1 (stereo not given) | 8
NC(=O)c1ccc(NC(=O)C2CC2)cc1 | 12
CC(Sc1ccc(Cl)cc1)C(=O)Nc1ccc2c(c1)OCO2 (stereo not given) | 17
CCN1CCN(C(=S)NC(CC(=O)c2ccccc2)c2ccccc2)CC1 (stereo not given) | 22
Cc1ccc(NC(=S)NNC(=O)c2ccc(N3CCOCC3)c([N+](=O)[O-])c2)cc1Cl | 19
CCOCCCNC(=O)CCC(=O)NNc1nc2ccccc2c2nc(-c3ccccc3)nn12 | 17
COc1cc(CN(C(=S)NCC(=O)N2CCCC2)C2CCCC2)cc(OC)c1OC | 16
COc1ccc(NS(=O)(=O)c2ccc(/C=C/C(=O)O)cc2)cc1S(=O)(=O)N1CCOCC1 | 19
O=[N+]([O-])c1ccccc1NC(=S)N/N=C/c1ccc(O)c(O)c1 | 3
Cc1cc(C)c(-c2c(O)c3cccc4c3n(c2=O)CCC4)c(C)c1 | 15
O=C(Cn1nnc(-c2ccc(F)cc2)n1)Nc1ccc2c(c1)OCCO2 | 1
S=c1[nH]nc(-c2ccc(Cl)cc2)n1/N=C/C=C/c1ccco1 | 13
CCOC(=O)c1c(NC(=O)CSc2nnc(C)s2)sc2c1CCC(C)C2 (stereo not given) | 12
CCCC(C)NC(=O)c1ccc(OCc2ccc(Cl)cc2)c(OC)c1 (stereo not given) | 21
CN1CCC(NC(=S)NC2CC2)CC1 | 12
O=C(CCc1c[nH]c2ccccc12)N/N=C/c1ccc2c(c1)OCO2 | 8
C=CCNC(=O)/C=C/c1cccs1 | 16

Quoted from the listing.
CC(Sc1ccc(Cl)cc1)C(=O)Nc1ccc2c(c1)OCO2 (stereo not given) @ Calb biofilm kill: 17
CCCC(C)NC(=O)c1ccc(OCc2ccc(Cl)cc2)c(OC)c1 (stereo not given) @ Calb biofilm kill: 21
CCOC(=O)C1=C(C)N=c2s/c(=C\c3ccc(OC(C)=O)cc3)c(=O)n2C1/C=C/c1ccccc1 (stereo not given) @ Calb biofilm kill: 8

Next part:
mol | Calb biofilm kill
CCCCC(C(=O)OCC(=O)c1ccc(OC)cc1)N1C(=O)c2ccccc2C1=O (stereo not given) | 10
CS/C(N)=N/N=C/c1c(O)ccc2ccccc12 | 15
COC(=O)c1ccc(OC(=O)c2cccnc2)cc1 | 20
O=C(CC(=O)Nc1ccccc1C(=O)O)NNC(=O)Cc1ccccc1 | -2
Cc1nc(Sc2ccc(Cl)cc2)c(C#N)c(C)c1[N+](=O)[O-] | 4
O=[N+]([O-])c1ccc(Nc2nc(NC3CCCCC3)nc(N3CCCC3)n2)cc1 | 14
COc1cccc(C(=O)OCC(=O)c2c[nH]c3ccccc23)c1O | -11
CCOC(=O)C1CCN(CC(=O)Nc2cc(S(=O)(=O)N3CCOCC3)ccc2C)CC1 | 6
Cc1cc([N+](=O)[O-])nn1CCCC(=O)N1CCN(c2ccc(F)cc2)CC1 | 10
Cc1ccccc1OCCNCC(C)O (stereo not given) | 24
Cc1cccc(NC(=O)CSc2ccc(C(N)=O)cc2[N+](=O)[O-])c1C | 8
CCN(CC)CCC(c1cc(OC)c(OC)c(OC)c1)c1c(O)cc(OC)cc1OC (stereo not given) | 34
Cc1ccc(NC(=O)Cc2sc(C)nc2-c2ccc(C)cc2)cc1 | 21
O=C(COC(=O)Cc1cccc(C(F)(F)F)c1)Nc1ccc2c(c1)OCCO2 | 23
COc1ccc(C2N(Cc3ccccc3)CCN2Cc2ccccc2)cc1[N+](=O)[O-] | 7
Cc1ccc(S(=O)(=O)Nc2cnn(-c3ccccc3)c(=O)c2Cl)cc1 | 18
COc1cc2cnncc2cc1OC | 3
COc1ccc(CCC(=O)Nc2sccc2C#N)cc1 | 9
CN(C)S(=O)(=O)c1cc(NC(=O)CSc2ncc(C(F)(F)F)cc2Cl)ccc1Cl | 15
CN1CCN(NC(=O)c2ccc(Br)c(S(=O)(=O)N3CCOCC3)c2)CC1 | 6

3 of the compounds above, as labelled records.
CCN(CC)CCC(c1cc(OC)c(OC)c(OC)c1)c1c(O)cc(OC)cc1OC (stereo not given)
- Calb biofilm kill: 34
Cc1ccc(NC(=O)Cc2sc(C)nc2-c2ccc(C)cc2)cc1
- Calb biofilm kill: 21
O=C(COC(=O)Cc1cccc(C(F)(F)F)c1)Nc1ccc2c(c1)OCCO2
- Calb biofilm kill: 23

Next part:
mol | Calb biofilm kill
Cc1c(NC(=O)COC(=O)c2c3c(nc4ccccc24)CCCC3)c(=O)n(-c2ccccc2)n1C | 12
CC(=O)N1CCC(=O)Nc2ccc([N+](=O)[O-])cc21 | 27
CN(C)c1cc(Nc2ccc(O)cc2)c([N+](=O)[O-])c2nonc12 | 20
C=CCS/C(N)=N\N=C\c1c(O)ccc2ccccc12 | 20
CN(C)c1ccc(P(=O)(OCc2ccccc2)C(O)c2ccccc2F)cc1 (stereo not given) | 18
O=C(CN1CCC(NC(=O)c2cccc(F)c2)CC1)NCc1cccs1 | 10
COC(=O)c1cc(C(=O)Cc2ccccc2)c[nH]1 | 20
COc1ccc(CNc2nc(-c3cccnc3)nn2S(C)(=O)=O)cc1 | 7
COC(=O)Cn1c2c(c3cc(C)ccc31)CCCC2 | 14
O=C(Cn1cnc2c(nnn2Cc2ccc(Cl)cc2)c1=O)OCc1ccccc1 | 9
C/C(C/C(C)=C1/SC(=S)NC1=O)=C1\SC(=S)NC1=O | 15
OCC1(CCOc2ccccc2)CCN(Cc2ccc3cccc(F)c3n2)CC1 | 5
O=C(N/N=C/c1ccccn1)NC12CC3CC(CC(C3)C1)C2 | 24
O=C(c1ccccn1)N1CCN(S(=O)(=O)c2ccc(F)cc2)CC1 | 4
COc1cc(C2C(C#N)=C(N)Oc3c2ccc2ccccc32)ccc1OCC(=O)Nc1ccc(C)cc1 (stereo not given) | 26
COc1ccc(OC)c(CNC(=O)c2cc(=O)[nH]c3ccc(S(=O)(=O)N4CCCC4)cc23)c1 | 5
CC(CN1CCN(C)CC1)OC(=O)c1cccc(Cl)c1 (stereo not given) | 16
COc1cc2c(cc1OC)C(C1(O)CCCCC1)NCC2 (stereo not given) | 20
CCOCCCNC(=O)Cn1cnc2sc(C)c(S(=O)(=O)N3CCN(c4ncccn4)CC3)c2c1=O | 13
S=C(NCc1ccccc1)N1CCc2ccccc2C1 | 2
O=C(O)CCCC(=O)N1CCN(c2ncccn2)CC1 | 11
Cc1ccc(S(=O)(=O)Nc2ccc3c(c2)n(C)c(=O)n3C)c(C)c1 | 12
CCn1c(SCC(=O)Nc2ccccc2)nnc1-c1cccs1 | 20
CC1CCc2c(sc3ncn(CC(=O)N=Nc4c(O)[nH]c5ccccc45)c(=O)c23)C1 (stereo not given) | 13
CCN(CC)C(=S)SCC(=O)Nc1nc(=O)c2ccccc2s1 | 6
O=C(COc1ccc(Cl)cc1Cl)N/N=C/c1ccc(OC2OC(CO)C(O)C(O)C2O)cc1 (stereo not given) | 23
Clc1ccc(C(c2nnnn2C2CCCCC2)N(Cc2cccnc2)Cc2ccco2)cc1 (stereo not given) | 16
OC[C@H]1OC(Nc2ccc(N=Nc3ccccc3)cc2)[C@@H](O)[C@@H](O)[C@@H]1O (stereo not given in full) | 9
NC(CSCc1cccc(Br)c1)C(=O)O (stereo not given) | 8
Nc1nc(NCCO)nc(NCC2CCCO2)c1[N+](=O)[O-] (stereo not given) | 9
Cn1c(N/N=C2\CCCc3ccccc32)nc2c1c(=O)n(Cc1ccc(F)cc1)c(=O)n2C | 15
C(=C\c1ccco1)/c1nc2ccccc2[nH]1 | -1
CN(CCO)CCOCCOc1cccc2ccccc12 | 14
O=C1CN2CCC1C/C2=C\c1ccnc2c(Cl)cccc12 (stereo not given) | 14
N#CCc1cnc2ccccc2n1 | 10
CCOC(=O)N1CCC(N(CCN(C)C)C(=S)Nc2cc(Cl)ccc2C)CC1 | 16
CSC1=NC(C(Cl)(Cl)Cl)N=C(c2ccc(C)cc2)N1 (stereo not given) | 19
N/C(=N\OC(=O)c1ccco1)c1ccc(Cl)cc1 | 27
CCn1c(C)nc2cc(C(=O)N/N=C(\C)c3ccc(N4CCOCC4)cc3)ccc21 | 15
C/C(N)=C(/C#N)C(=O)COC(=O)c1cc(-c2ccc(C)cc2)nc2ccccc12 | 12
Cc1ccc(C)c(N(C)S(=O)(=O)c2ccc3[nH]cc(C(=O)NCCN4CCOCC4)c(=O)c3c2)c1 | 14
Nc1ccccc1CNc1nc(NCCO)nc2c1ncn2CCN1CCOCC1 | 15
O=C(CSc1ccc(-c2cccnc2)nn1)N1CCCCCC1 | 18
O=C(Nc1nc2cc3c(cc2s1)OCO3)C1CC1 | 12
COc1ccccc1NC(=O)CSc1nnc(Cn2cnc3ccccc32)o1 | 3
CC1=C(C(=O)Nc2cc(C)ccn2)C(c2cnn(C)c2)C2=C(CC(c3ccccc3)CC2=O)N1 (stereo not given) | 13
CCCn1c(NC(=O)c2ccc(F)cc2)nc2ccccc21 | 5
COc1cc(/C=N/NC(=O)CN2CCCCC2)ccc1OCc1ccc(Br)cc1 | 12
CCOC(=O)/C(C#N)=C1/C(=O)N(Cc2ccccc2)c2ccccc21 | 12
CSc1nsc(/C=C/Nc2ccc(C)c(C)c2)c1C#N | 18
Cn1c(=O)c2c(nc(NNC(=O)C(F)(F)F)n2C)n(C)c1=O | 17
C#CCOCCOCCOCCNc1nc(N2CCN(C(=O)Cn3cc(CCCCN)nn3)CC2)nc(N2CCN(C(=O)Cn3cc(CC(C)O)nn3)CC2)n1 (stereo not given) | 6
O=C(CP(=O)(c1ccccc1)c1ccccc1)Nc1cccc(CP(=O)(c2ccccc2)c2ccccc2)c1 | 19
COCCCN=Cc1c(C)[nH]n(-c2ccc(Br)c(C)c2)c1=O | 21
O=C1C2C3CCC(C3)C2C(=O)N1Cc1ccco1 (stereo not given) | 11
O=C(N/N=C/c1c(O)ccc2ccccc12)c1cccc(C(F)(F)F)c1 | 21
N#C/C(=C\c1ccc(C#N)cc1)C(=O)N1CCCC1 | 10
CC(=O)N1CCC(=NNc2ccnc3cc(Cl)ccc23)CC1 | 4
CSCC[C@H](NC(=O)c1ccc(Cl)c([N+](=O)[O-])c1)c1nc2ccccc2[nH]1 | 15
CCCCCC(=O)Nc1cccc(C2=NOC3(C2)C[C@@H](C(N)=O)N(C(=O)CC(c2ccccc2)c2ccccc2)C3)c1 (stereo not given in full) | 10

Quoted at random: two entries already listed
mol | Calb biofilm kill
CSCC[C@H](NC(=O)c1ccc(Cl)c([N+](=O)[O-])c1)c1nc2ccccc2[nH]1 | 15
COCCCN=Cc1c(C)[nH]n(-c2ccc(Br)c(C)c2)c1=O | 21

(next part)
mol | Calb biofilm kill
CCCOc1ccc(-c2nn(-c3ccccc3)cc2/C=C2\SC(N)=NC2=O)cc1 | 16
Cc1ccc(OCC(=O)Nc2ccc(C)c(S(=O)(=O)N3CCCCC3)c2)c([N+](=O)[O-])n1 | 14
O=C(Oc1ccccc1)c1ccc2c(c1)C(=O)N(Cc1ccncc1)C2=O | 26
CN(C)C=Nc1nonc1-c1ccccc1 | 18
CCOC(=O)Cn1c(O)c(N=NC(=O)OC)c2ccccc21 | 15
CN1CCN(CCC(=O)N/N=C/C=C2\N(C)c3ccccc3C2(C)C)CC1 | 18
Cc1ccsc1S(=O)(=O)N1CCC(CO)(CC2CCCCO2)CC1 (stereo not given) | 7
CCCCC1=CC2=CC(=O)C(C)(OC(=O)CC)C(=O)C2=CN1CCc1ccc(Br)cc1 (stereo not given) | 13
CC(C)NC(=O)c1cnn2c1NC(c1cccs1)CC2C(F)(F)F (stereo not given) | 10
CCC(=O)Nc1cccc(C2=NOC3(C2)C[C@@H](C(N)=O)N(C(=O)c2ccccc2C(=O)c2ccccc2)C3)c1 (stereo not given in full) | 16
CCC(=O)N/N=C(\C)CC(=O)Nc1cc(Cl)ccc1C | 18
COc1ccc(C2=NN(C(N)=S)C(c3ccco3)C2)cc1 (stereo not given) | -3
Cc1nnc(SCC(=O)O)o1 | 3
CCOC(=O)c1sc(N2N=C(C)C(N=Nc3cccc(C)c3)C2=O)nc1C (stereo not given) | 23
COc1ccc2[nH]c(=O)c(CN(CC3CCCO3)C(=S)Nc3ccccc3)cc2c1 (stereo not given) | -1
Cc1onc(-c2ccccc2)c1C(=O)OCC(=O)NCc1ccc(F)cc1 | 11
C/C(=N\Nc1ccc2nncn2n1)c1ccccn1 | 24
O=C(CSc1nnc(Cn2nnc3ccccc32)o1)Nc1ccc(Cl)cc1 | 14
CCOC(=O)C1=C(C)NC(=S)N(C(C)=O)C1c1ccccc1 (stereo not given) | 8
CC1(C)SC(=S)N(c2ccccc2)C1/[N+]([O-])=C/c1cccc([N+](=O)[O-])c1 (stereo not given) | 18
Cc1ccc(OCC(=O)Nc2ccc(F)cc2)c([N+](=O)[O-])n1 | 9
CC1(C)Oc2ccc3ccc(=O)oc3c2/C(=C/Nc2ccc(O)cc2)C1=O | 6
COc1ccc(CC(=O)N/N=C(\C)c2ccccn2)cc1 | 16
COc1c(O)ccc(/C=C(\C#N)c2nc3ccccc3[nH]2)c1[N+](=O)[O-] | 14
O=C(NCCc1cccs1)C1CC1 | 17
COc1ccc(Cn2c(C)nc3c(c(=O)c4ccccc4n3C)c2=O)cc1 | 16
